fixLJ activator: activators of Burkholderia fixLJ two-component system, primary screen, B. multivorans, GFP reporter; B. multivorans fixK-promoter GFP reporter, 18 h; stronger effect = higher value; z-score (test concentration not listed); 29,000 compounds, 0.3% hits;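 active = replicate mean overnight rise in green fluorescent reporter signal, 3 or more SD over negative controls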;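 note: score is relative to vehicle wells of the plate; 300 nL library stock went into each well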
* hit, by the source's call; & = joins results of further samples. A portion of the library. The share of hits here may be higher or lower than overall.

SMILES	fixLJ activator
CCOC(=O)N1CCc2c(sc3c2c(=O)n(CCc2ccccc2)c(=O)n3Cc2c(F)cccc2Cl)C1	-0.26
COc1cc(-c2nnc(SCC(=O)N3CCCc4ccccc43)o2)cc(OC)c1OC	0.51
COC(=O)c1cc(NC(=O)CCc2c(C)nc3nc(C)nn3c2C)cc(C(=O)OC)c1	-1.6
CC(C)(C)C(=O)Cn1c(=O)n(-c2ccc(Cl)c(Cl)c2)c(=O)c2c3c(sc21)CCCC3	-0.53
CCC1=NOC(C(=O)N2CCC(Oc3ccc(Cl)cc3)CC2)C1 (stereo not drawn)	-0.06
COc1ccc(CNC(=O)Cn2nnc(-c3ccc(S(C)(=O)=O)cc3)n2)cc1	0.3
CCN1CCN(c2cc(C)c3cc(NC(=O)c4cc(Cl)ccc4OC)ccc3n2)CC1	-1.1
Cc1ccccc1-c1nnc(CN2CCN(c3ccccn3)CC2)o1	-1.3
COc1ccc(C(=O)c2c(N)c(-c3nc(-c4ccc5c(c4)OCO5)cs3)c3ccccn23)cc1	0.95
CCOc1ccc(NS(=O)(=O)c2ccc3[nH]cc(C(=O)NCCOC)c(=O)c3c2)cc1	-0.67
CC(C)CN1CCOC2(CCN(C(=O)c3cc4c([nH]c3=O)CCCC4)CC2)C1	0.28
CC1=C(C(N)=O)C(c2cccc(C)c2)n2nc(-c3cccc(C)c3)nc2N1 (stereo not drawn)	-0.45
NC(Cc1c[nH]c2ccccc12)C(=O)O (stereo not drawn)	-0.82
COc1ccccc1NC(=O)Cn1c(=O)n(Cc2ccccc2)c(=O)c2sc3ccccc3c21	-0.85
CCn1c(=O)cc(OCC(=O)N2CCN(c3ccccc3OC)CC2)c2ccccc21	-1.4
CC(=O)c1cccc(NC(=O)Cn2c(=O)oc3cc(S(=O)(=O)NC4CCCC4)ccc32)c1	-0.65
O=C(NCc1nc(-c2ccncc2)n[nH]1)c1ccccc1-c1ncn[nH]1	0.49
CCc1ccc(-n2c(=O)c3c4c(sc3n(Cc3ccc(C)cc3)c2=O)CCC4)cc1	-1.1
CCOC(=O)c1ccc(N2C(=O)c3n[nH]c(-c4ccco4)c3C2c2cccc(OC)c2)cc1 (stereo not drawn)	-0.79
CCNC(=O)N1CCC(NC(=O)c2ccc(-c3cncn3C)cc2)CC1	-0.09
CCCn1c(=O)sc2cc(NC(=O)c3ccccc3OCC)ccc21	-1.6
CCCCNC(=O)C1CCN(S(=O)(=O)c2cc(Br)cc3c2N(C(=O)CC)CC3)CC1	-2.4
CCOc1ccc(NC(=O)CSc2ccc3ccccc3n2)cc1	-2.1
Cc1ccc(-c2cc(O)c3c(c2)CN(CCN2CCCC2=O)CCO3)s1	-0.87
O=C(COc1ccccc1)Nc1sc2c(c1C(=O)Nc1ccccc1)CCCCC2	-0.07
CCCCC(CC)CNC(=O)c1ccc(Cn2c(=O)[nH]c3cc(OC)c(OC)cc3c2=O)cc1 (stereo not drawn)	-3
CCOC(=O)c1c(C)n(-c2ccccc2)c2ccc(OC(=O)c3ccc(OCC)c(OCC)c3)cc12	-0.15
CN(Cc1ccccc1)C(=O)CSc1c2c(nc3ccc(Cl)cc13)CCCC2	0.91
Cc1cccnc1CC(C)N(C)C(=O)Cc1ccc(O)c(Cl)c1 (stereo not drawn)	-1.4
CC1CCCN(C(=O)c2cc3c(=O)n(C)c4ccccc4c3s2)C1 (stereo not drawn)	0.93
Cc1ccc(S(=O)(=O)NCCCNC(=O)Cn2ccnc2C)cc1	0.71
CNC(=O)CCCNC(=O)C1CC(c2ccccc2)N2CCC[C@@H]12 (stereo partly drawn)	0.64
Cc1ccc2c(c1)C(Cc1nc3ccccc3c(=O)n1-c1ccc(Br)cc1)C(=O)N2 (stereo not drawn)	0.79
Cc1nc(C)n(CCCNC(=O)CCC(=O)Nc2cccc(F)c2)n1	-0.63
COc1cc(C(=O)NS(=O)(=O)c2ccccc2C)ccc1Cc1cn(C)c2ccc(NC(=O)OC3CCCC3)cc12	-0.77
Nc1ccncc1	-1.1
CCCN(CCC)CCCNC(=O)Cn1cnc2sc(C)c(S(=O)(=O)N3CCC(C)CC3)c2c1=O	0.56
CCOC(=O)c1sc2ncn(CC(=O)Nc3cc(C)cc(C)c3)c(=O)c2c1C	-0.3
CCOc1ccccc1NC(=O)CN(CCc1ccccc1)S(=O)(=O)c1ccc(C)cc1	2.6
CCN(C(=O)Cn1cnc2sc(C)c(S(=O)(=O)N3CCN(c4ncccn4)CC3)c2c1=O)c1ccccc1F	-2.7

No new results follow: entries from further up.
SMILES	fixLJ activator
CCOC(=O)N1CCc2c(sc3c2c(=O)n(CCc2ccccc2)c(=O)n3Cc2c(F)cccc2Cl)C1	-0.26
COc1cc(-c2nnc(SCC(=O)N3CCCc4ccccc43)o2)cc(OC)c1OC	0.51

Later entries
SMILES	fixLJ activator
Cc1cc(C)c(Cn2c3ccccc3c3cnn(CC(=O)NCc4ccc(Cl)cc4)c(=O)c32)c(C)c1	1.2
CCOC(=O)C1=C(C)NC(C)=C(C(=O)OC)C1c1cccc([N+](=O)[O-])c1 (stereo not drawn)	-1.4&-1.5
CC(C)CC(=O)N(Cc1ccccc1)S(=O)(=O)c1ccc2c(c1)oc(=O)n2C	1.9
Cc1ccc(NC(=O)CSc2nnc3scc(-c4ccccc4)n23)cc1	-3
CCc1ccc(NC(=O)C2CCCN(S(=O)(=O)c3ccc4c(c3)oc(=O)n4C)C2)cc1 (stereo not drawn)	-1
Cn1nc(CC2CCN(CC3CCOC3)CC2)n(-c2ccccc2)c1=O (stereo not drawn)	-0.03
OC1(CNCc2coc(-c3ccccc3)n2)CNCCOC1 (stereo not drawn)	-0.77
O=C(Cn1c(=O)n(Cc2ccc(C(=O)NCc3ccccc3Cl)cc2)c(=O)c2ccccc21)Nc1ccc(F)c(Cl)c1	0.14
COc1cc(OC)cc(C(=O)Nc2c(C(=O)Nc3ccc(F)cc3)oc3ccccc23)c1	0.67
CCN(CCCNC(=O)c1cc2c(=O)n(CC)c3ccccc3c2s1)c1ccccc1	2.6
C=CCCC(=O)N1CCC[C@]2(C1)CN(C(=O)c1ccccc1CC)CCC2O (stereo partly drawn)	-0.53
CN(C)c1oc(/C=C/c2ccc(F)cc2)nc1C#N	-2.2
COc1cc(-c2nc(SCC(=O)Nc3ccc(C)cc3)c(-c3ccc(F)cc3)[nH]2)cc(OC)c1OC	1.7
O=C(CSc1nnc(CNC(=O)c2ccccc2F)n1-c1ccccc1)Nc1ccccc1F	-0.38
CCc1ccc(NC(=O)c2ccc3c(c2)N(Cc2ccc(C)cc2)CCS3)cc1	-1.1
COC(=O)c1ccc(NC(=O)CCc2c(C)nc3c(c2C)c(=O)n(C)c(=O)n3C)cc1	-0.07
COCC(=O)Nc1ccc(OC)cc1NC(=O)c1cnoc1-c1ccccc1	-2.6
Clc1ccc2nc(-c3cccs3)c(Nc3ccc4c(c3)OCCO4)n2c1	0.57
CCOc1ccc(NC(=O)c2c(NC(=O)c3ccccc3F)sc3c2CCC3)cc1	-0.67
Cc1ccc(Nc2ncc(C(=O)N3CCN(c4ccc(F)cc4)CC3)c3ccccc23)cc1Cl	1.7
COc1ccc(C(C(=O)NCc2ccccc2)N(C(=O)Cn2nnc3ccccc32)c2cccc(OC)c2)cc1 (stereo not drawn)	-0.61
COC(=O)C1=C(c2ccccc2)c2ccccc2S(=O)(=O)N1CC(=O)Nc1cc(C)ccc1C	-0.59
CCc1cc2c(cc3c(=O)n(CC(=O)NCc4cccc(Cl)c4)nc(CC)n32)s1	-0.33
Cc1ccn2cc(CNC(=O)CCCc3nc(-c4ccco4)no3)nc2c1	-2.1
CC(C)Oc1cccc(C(=O)N(CCN(C)C)CC(=O)O)c1	1.4
COC(=O)c1cc2oc(C)cc2n1Cc1c(C)cc(C)cc1C	0.55
CC(C)c1ccc(Nc2c(-c3ccc(N(C)C)cc3)nc3cnccn23)cc1	-1.6
CC(=O)c1c(C)oc2ccc(N(C(=O)Oc3ccccc3)S(=O)(=O)c3ccc(Cl)cc3)cc12	0.47
COc1ccc(NC(=O)CSc2cn(CCNC(=O)c3ccc(OC)cc3)c3ccccc23)cc1	-0.09
O=C(O)c1ccc(OC2COCCC2NC(=O)C2CCC2)cc1 (stereo not drawn)	0.88
CCc1cc(C(=O)N2CCC(CNC(=O)c3csc4ccccc34)CC2)on1	-1.5
Cc1ccc(CN2C(=O)C(=O)c3cc(Br)cc(C)c32)cc1	0.31
Cc1sc2ncn(CC(=O)N(C)c3ccc(C(C)C)cc3)c(=O)c2c1S(=O)(=O)N1CCC(C)CC1	1
COc1ccc(-c2ccc(CCC(=O)O)n2-c2ccccc2O)cc1	-0.67
Cc1c(NC(=O)c2sc3ccccc3c2Cl)cccc1-c1nc2ccccc2o1	-0.43
Cc1nc(CN2CCN(C(=O)Nc3cccc(-n4cnnn4)c3)CC2)cs1	0.23
CCOc1ccccc1NC(=O)c1cnn2c(C(F)F)cc(-c3ccccc3)nc12	-0.54
Cc1nc(C2CCCN(C(=O)c3ccc4oc(C(C)C)nc4c3)C2)cc(=O)[nH]1 (stereo not drawn)	-0.36
Cc1ccc(Cl)cc1N1CCN(C(=O)C2CCCN(S(=O)(=O)c3ccc(Br)s3)C2)CC1 (stereo not drawn)	1.4
Cn1c(=O)c2c(nc(NCc3ccccc3)n2Cc2ccccc2Cl)n(C)c1=O	-1.9
C#CCOc1ccc(-c2nnc(Nc3cccc(C)c3)c3ccccc23)cc1	-0.49
COc1ccc(S(=O)(=O)N(CCc2ccccc2)CC(=O)Nc2ccc(C)c(C)c2)cc1OC	1.1
O=C(NC1CCOCC1)C1CCCN(C2CCN(Cc3cccnc3)CC2)C1 (stereo not drawn)	0.55
COc1ccc(NC(=O)c2ccco2)cc1NC(=O)c1ccc(C)c(C)c1	-1.3
Cc1nc2sc(C(N)=O)c(N)c2c(-c2ccc(Br)cc2)c1C(=O)Nc1ccc(Cl)cc1	-2.8
CCOC(=O)c1c(Nc2ccc(O)cc2)nnc(-c2ccccc2)c1-c1ccccc1	-0.18
CCC[C@]1(C(=O)O)CN(S(=O)(=O)c2ccc(F)cc2)CCC1O (stereo partly drawn)	-0.63
COc1ccc(NC(=O)Cn2c(=O)n(-c3ccc(OC)cc3)c(=O)c3ccc(C(=O)NCc4ccc(C)cc4)cc32)cc1	-1
COc1cccc(CN2CCNC(=O)C2CC(=O)N2CCN(C)CC2)c1OC (stereo not drawn)	0.19
Cc1noc(C)c1CN(C)C(=O)CN1CC(c2ccccc2)CC1=O (stereo not drawn)	-1.3
Nc1c(C(=O)Nc2ccccc2)sc2nc3c(cc12)CN(Cc1ccccc1)CC3	-0.96
COc1ccc(-c2cc(C(=O)Oc3ccccc3)c3cc(C)ccc3n2)cc1	-1.4
Cc1oc2ccc(O)c(CN3CCC(C)CC3)c2c1C(=O)Nc1ccccc1	-2
Cc1cc(C(=O)N2CCCC(c3nn(C)c(=O)n3-c3ccccc3)C2)no1 (stereo not drawn)	1
C[C@H]1O[C@H](O[C@H]2[C@H](O)[C@@H](O)[C@@H](O[C@H]3[C@H](O)[C@@H](O)C(O)O[C@@H]3CO)O[C@@H]2CO)[C@H](O)[C@@H](O)[C@@H]1N[C@H]1C=C(CO)[C@@H](O)[C@H](O)[C@H]1O (stereo partly drawn)	0.64
CC(C)Oc1ccc(CNC(=O)c2ccc3nc(SCc4ccc(F)cc4)n(C)c3c2)cc1	1.3
CC1=Nc2cc(C(=O)NCCc3ccc(Cl)cc3)ccc2Sc2c(C)ccc(C)c21	-0.62
CCC(COC)NC(=O)c1ccc(-c2ccc(C#N)cc2)cc1 (stereo not drawn)	-2.4
CN(C)C(=O)N1CCCn2nc(CNC(=O)CCc3ccncc3)cc2C1	-1.1
CCOC(=O)c1c(C)oc2ccc(N(C(=O)Oc3ccccc3)S(=O)(=O)c3ccc(CC)cc3)cc12	0.68
(next part)
SMILES	fixLJ activator
CCOC(=O)c1c(Nc2ccc(OCC)cc2)nnc(-c2ccccc2)c1-c1ccccc1	0.44
CCOc1ccc(NC(=O)/C(C#N)=C\c2ccc(-c3ccc(Cl)cc3)o2)cc1	-0.39
COc1ccccc1CSc1nc2n(n1)C(c1ccccc1)C(C(=O)Nc1ccc(C)cc1)=C(C)N2 (stereo not drawn)	-0.23
Cc1cccc(NC(=O)Nc2cccs2)c1C	-1.5
O=C(c1ccc2n[nH]nc2c1)N1CCCC(c2nccn2Cc2ccccn2)C1 (stereo not drawn)	-1.1
Cc1ccc(-c2nc3ncccc3o2)cc1NC(=O)COc1ccc(C(C)C)cc1	-1.6
Cc1noc(C2CCCCN2C(=O)NCc2ccccc2-n2cccn2)n1 (stereo not drawn)	-1.2
O=C(NCCO[N+](=O)[O-])c1cccnc1	-1.4
COc1cc(OC)cc(-c2cc3nc(C)c(CCC(=O)Nc4ccccc4OC)c(C)n3n2)c1	-1.6
CCOc1cc(C(=O)Nc2cccc(-c3nc4ccccc4o3)c2)cc(OCC)c1OCC	-0.53

Of the compounds above, 13 contain fluorine:
SMILES	fixLJ activator
CCOC(=O)N1CCc2c(sc3c2c(=O)n(CCc2ccccc2)c(=O)n3Cc2c(F)cccc2Cl)C1	-0.26
Cc1nc(C)n(CCCNC(=O)CCC(=O)Nc2cccc(F)c2)n1	-0.63
CCN(C(=O)Cn1cnc2sc(C)c(S(=O)(=O)N3CCN(c4ncccn4)CC3)c2c1=O)c1ccccc1F	-2.7
O=C(Cn1c(=O)n(Cc2ccc(C(=O)NCc3ccccc3Cl)cc2)c(=O)c2ccccc21)Nc1ccc(F)c(Cl)c1	0.14
COc1cc(OC)cc(C(=O)Nc2c(C(=O)Nc3ccc(F)cc3)oc3ccccc23)c1	0.67
CN(C)c1oc(/C=C/c2ccc(F)cc2)nc1C#N	-2.2
COc1cc(-c2nc(SCC(=O)Nc3ccc(C)cc3)c(-c3ccc(F)cc3)[nH]2)cc(OC)c1OC	1.7
O=C(CSc1nnc(CNC(=O)c2ccccc2F)n1-c1ccccc1)Nc1ccccc1F	-0.38
CCOc1ccc(NC(=O)c2c(NC(=O)c3ccccc3F)sc3c2CCC3)cc1	-0.67
Cc1ccc(Nc2ncc(C(=O)N3CCN(c4ccc(F)cc4)CC3)c3ccccc23)cc1Cl	1.7
CCOc1ccccc1NC(=O)c1cnn2c(C(F)F)cc(-c3ccccc3)nc12	-0.54
CCC[C@]1(C(=O)O)CN(S(=O)(=O)c2ccc(F)cc2)CCC1O (stereo partly drawn)	-0.63
CC(C)Oc1ccc(CNC(=O)c2ccc3nc(SCc4ccc(F)cc4)n(C)c3c2)cc1	1.3
